DUX4 txn inh – inhibitors of DUX4-driven ZSCAN4 reporter expression, primary screen, 293T cells, Gaussia and Italica luciferase; 293T-iDUX4 ZSCAN4-Gaussia luciferase reporter, 24 h; hits give low values; 0.8% of 37,000 active; activity change, negative = inhibition, % (concentration not given with the values);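 active = -10% or lower and over 25 points stronger than a control reporter; inconclusive = -10% or lower with a smaller gap; inactive = above -10%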;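 note: 0% = median of neutral control wells and -100% = median of positive control wells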
DUX4 txn inh difference – also measured in DUX4 txn inh; calls as there; Gaussia minus Italica difference, %; measured here: selective DUX4 reporter inhibition;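 worked out from the two reporters; negative = selective loss of the DUX4 reporter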
DUX4 txn inh control – second read-out of DUX4 txn inh, no call of its own (marks repeat the call); activity change, negative = inhibition, %; measured here: Italica tet-on control reporter;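 0 = neutral control and -100 = positive control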
Starred values were filed as active, the others as inactive; ? = inconclusive; · = no result given. Not all compounds are listed, so the mix of outcomes need not match the whole.

DUX4 txn inh control	DUX4 txn inh difference	DUX4 txn inh	Molecule
-0.8	-2	-3	C[C@@H]1CN([C@H](C)CO)C(=O)c2cc(NC(=O)Nc3cccc4ccccc34)ccc2O[C@H]1CN(C)Cc1ccc(Cl)c(Cl)c1
-3.2	9	6	CN(C)C(=O)C[C@H]1CC[C@H](NC(=O)C2CCOCC2)[C@@H](CO)O1
-6.0	11	5	CCCNC(=O)[C@H]1[C@H](CO)[C@H]2Cn3c(cccc3=O)[C@H]2N1CCC(F)(F)F
2.4	-2	0	CC=Cc1ccc2n(c1=O)C[C@@H]1[C@@H](CO)[C@H](C(=O)NCc3ccccc3)N(CC)[C@H]21 (mixture of isomers)
-2.6	2	-1	CCC(=O)N(CC(C)C)C[C@H]1[C@H](c2ccccc2)[C@@H](CO)N1C(=O)C1CCC1
-4.2	11	6	COc1ccccc1S(=O)(=O)N(C)C[C@H]1OCc2cnnn2CCCC(=O)N([C@@H](C)CO)C[C@@H]1C
·	·	?	N#Cc1cccc(-c2ccc3c(c2)[C@@H]2[C@@H](CCN2C(=O)C2CCCCC2)[C@@H](CO)N3)c1
3.1	-8	-5	CC=Cc1ccc2n(c1=O)C[C@H]1[C@H](CO)[C@@H](C(=O)N[C@H](C)c3ccccc3)N(C(=O)c3ccccn3)[C@@H]21 (mixture of isomers)
8.1	8	16	COc1ccc2c3c([nH]c2c1)[C@H](CO)N(C(C)=O)CC31CN(C(=O)c2ccc3c(c2)OCO3)C1
·	·	?	CC(=O)N1CCCCN2[C@H](CO)[C@H](c3ccc(-c4ccc(F)cc4)cc3)[C@@H]2C1
-4.1	6	2	CO[C@H]1CC[C@H]2CCN(C)C(=O)[C@H](C)[C@H](OC)CN(C)C(=O)c3cc(C#N)ccc3OC[C@@H]1O2
6.7	-5	2	C[C@@H]1CCCCO[C@H](CN(C)CC2CC2)[C@H](C)CN([C@@H](C)CO)C(=O)c2cc(NC(=O)c3ccccc3)ccc2O1
4.8	-4	1	C[C@@H]1CN([C@@H](C)CO)S(=O)(=O)c2ccc(C#C[C@@H](C)O)cc2O[C@H]1CN(C)C(=O)C1CCCCC1
0.1	2	2	CNC[C@H]1OCCCC[C@@H](C)Oc2ccc(NC(=O)Nc3c(C)noc3C)cc2C(=O)N([C@H](C)CO)C[C@H]1C
-3.4	-4	-8	O=C1CNC[C@H]2[C@H](c3ccc(C#CC4CCCCC4)cc3)[C@@H](CO)N12
0.3	2	2	C[C@H](CO)N1C[C@H](C)[C@@H](CN(C)C(=O)Nc2ccc(C(F)(F)F)cc2)Oc2c(NC(=O)c3ccc(-c4nccs4)cc3)cccc2C1=O
-3.9	10	6	COc1ccccc1NC(=O)N[C@H]1CC[C@@H](CC(=O)N[C@@H](C)c2ccccc2)O[C@@H]1CO
3.0	-1	2	C[C@@H]1CN([C@@H](C)CO)C(=O)CCCn2nncc2CO[C@@H]1CN(C)Cc1ccc2c(c1)OCCN2C
4.8	-3	1	CNC[C@@H]1OCCCC[C@@H](C)Oc2ccc(NS(=O)(=O)c3cccs3)cc2C(=O)N([C@H](C)CO)C[C@H]1C
·	·	?	COc1ccccc1-c1cccc(-c2nc(C(=O)N3CCCCC3)cc3c2[C@H](CCO)N([S@@](=O)C(C)(C)C)C3)c1
1.0	4	5	CO[C@H]1CN(C)C(=O)c2cc(NS(=O)(=O)c3ccccc3)ccc2OC[C@H](C)N(Cc2cccnc2)C[C@@H]1C
7.9	5	12	O=C(CC1CC1)N1CC2(C1)[C@@H](c1ccccc1)[C@H](CO)N2C(=O)c1cccnc1
-2.0	7	5	CNC(=O)C[C@H]1CC[C@@H]2[C@H](COC[C@@H](O)CN2Cc2ccncc2)O1
·	·	?	COc1ccc2c3c(n(C)c2c1)[C@@H](CO)N(Cc1ccccc1)CC31CCN(CC2CC2)CC1
-1.6	6	5	CNC(=O)C[C@@H]1CC[C@H]2[C@@H](COC[C@H](O)CN2Cc2ccccc2F)O1
4.4	-6	-2	O=C(N[C@H]1C=C[C@@H](CC(=O)N2CCN(c3ccccc3)CC2)O[C@@H]1CO)c1ccccc1
0.7	0	1	COc1ccc(S(=O)(=O)Nc2ccc3c(c2)C(=O)N([C@H](C)CO)C[C@@H](C)[C@H](CN(C)Cc2ccc(C(F)(F)F)cc2)OCCCC[C@@H](C)O3)cc1
4.1	-1	3	CO[C@H]1CN(C)C(=O)c2ccc(NS(=O)(=O)c3cccc(F)c3)cc2OC[C@H](C)NC[C@H]1C
1.3	1	2	CCNC(=O)c1cc2c(c(-c3cccc(-c4cncnc4)c3)n1)[C@H](CCO)N(C(C)=O)C2
18	6	24	CCCNC(=O)N1CC2(C1)CN(C(=O)CC1CC1)[C@H](CO)c1[nH]c3cc(OC)ccc3c12
1.5	4	6	Cc1noc(C)c1NC(=O)Nc1cccc2c1O[C@@H](CN(C)C(=O)NC1CCCCC1)[C@H](C)CN([C@H](C)CO)C2=O
-1.7	5	4	O=C(NCc1ccc(F)cc1)[C@@H]1[C@@H](CO)[C@@H]2Cn3c(ccc(-c4cccnc4)c3=O)[C@H]1N2
·	·	?	C[C@H](CO)N1C[C@H](C)[C@H](CN(C)C(=O)Nc2cccc(F)c2)OCc2ccccc2-c2c(n(C)c3ccccc23)C1=O
0.1	-6	-6	CCNC(=O)[C@@H]1[C@@H](CO)[C@@H]2Cn3c(ccc(-c4ccccc4F)c3=O)[C@H]1N2C(=O)CC
-6.1	2	-4	CC=Cc1ccc2n(c1=O)C[C@@H]1[C@@H](CO)[C@H](C(=O)NCC3CC3)N(Cc3nccs3)[C@H]21 (mixture of isomers)
-0.1	1	0	CS(=O)(=O)N1[C@H](C(=O)NCCc2ccncc2)[C@@H](CO)[C@@H]2Cn3c(ccc(C4=CCCC4)c3=O)[C@@H]21
·	·	?	COc1ccc2c3c(n(C)c2c1)[C@@H](CO)N(C(=O)Nc1ccccc1F)CC31CCN(C(=O)c2ccccc2)CC1
4.0	-2	2	COc1ccc(-c2ccc3c(c2)[C@@H]2[C@@H](CCN2Cc2ccncc2)[C@@H](CO)N3)cc1
2.2	0	2	O=C1N[C@@H](c2ccccc2)COCc2cnnn2CC[C@H]1Cc1ccc(C(F)(F)F)cc1
-2.1	-2	-4	CN(C)C(=O)c1cccc(-c2ccc([C@@H]3[C@@H](C#N)N(C(=O)C4CC4)[C@H]3CO)cc2)c1
-4.2	0	-4	N#C[C@H]1[C@@H](c2ccccc2)[C@@H](CO)N1C(=O)Cc1ccccn1
1.7	4	6	Cc1noc(C)c1NC(=O)Nc1ccc2c(c1)C(=O)N([C@H](C)CO)C[C@@H](C)[C@@H](CN(C)C(=O)NC1CCCCC1)OCCCC[C@H](C)O2
3.5	-4	-1	COc1cccc(C(=O)N2C[C@@H]3[C@H](c4ccccc42)[C@H](CO)N3Cc2ccccc2F)c1
-3.2	-3	-6	CCC(=O)N1CC2(C1)[C@@H](c1ccc(-c3ccc(C)cc3)cc1)[C@H](CO)N2S(=O)(=O)CC
-0.8	-2	-2	COCC(=O)N1[C@@H](CO)[C@@H]2c3ccccc3N(C(=O)Nc3ccccc3F)C[C@@H]21
3.5	-2	2	COc1ccc([C@H]2C/C=C\C[C@H](c3ccccc3)NC(=O)CCC(=O)N2)c(OC)c1
·	·	?	CN1c2ccc(-c3ccc(F)cc3)cc2[C@@H]2[C@@H](CCN2S(=O)(=O)c2cccc(F)c2)[C@H]1CO
-3.4	4	1	C[C@H](CO)N1C[C@H](C)[C@@H](CN(C)Cc2ccc3c(c2)OCO3)OCc2cn(nn2)CCCC1=O
12	14	27	OC[C@H]1[C@@H](c2ccc(-c3cccnc3)cc2)[C@@H]2CN(CC3CC3)CCCCN12
·	·	?	CN(C)C(=O)c1cccc(-c2ccc3c(c2)[C@@H]2[C@@H](CCN2C(=O)Cc2ccccc2)[C@@H](CO)N3)c1

The list continues.
DUX4 txn inh control	DUX4 txn inh difference	DUX4 txn inh	Molecule
5.0	5	10	Cc1ccc(CN2CC(=O)N3[C@H](C2)[C@@H](c2ccc(Br)cc2)[C@@H]3CO)cc1
-5.8	5	0	CN(C)CC#Cc1ccc([C@H]2[C@H]3CN(C(=O)Nc4cc(F)ccc4F)CCCCN3[C@H]2CO)cc1
-0.5	4	4	CN(C)C(=O)C[C@@H]1C[C@@H]2c3cc(NC(=O)Nc4ccc(F)cc4)ccc3O[C@@H]2[C@H](CO)O1
-9.8	14	4	O=C1CCCc2cnnn2COC[C@H](Cc2ccccc2)N1
3.8	-4	0	CC=Cc1ccc2n(c1=O)C[C@H]1[C@H](CO)[C@@H](C(=O)NCCC)[C@@H]2N1Cc1cccnc1 (mixture of isomers)
1.6	-3	-1	COCC#Cc1ccc([C@@H]2[C@@H](CO)N3CCCCN(C(=O)Nc4cc(F)ccc4F)C[C@@H]23)cc1
0.2	0	0	C[C@@H]1CN([C@@H](C)CO)C(=O)c2cc(N(C)C)ccc2O[C@@H](C)CCCCO[C@H]1CN(C)Cc1ccc2c(c1)OCO2
-0.9	1	0	COc1ccc(CN2[C@@H](CO)[C@@H]3c4ccccc4NC[C@@H]32)cc1
-2.3	3	1	C[C@H](CO)N1C[C@H](C)[C@@H](CN(C)Cc2ccncc2)Oc2ccc(NC(=O)NC3CCCCC3)cc2C1=O
0.1	-4	-4	CCCc1cn(CC[C@@H]2CC[C@H](NC(=O)C3CCOCC3)[C@H](CO)O2)nn1
1.0	7	8	O=C(C1CCCC1)N1CC2(C1)[C@@H](c1ccccc1)[C@@H](CO)N2Cc1cncnc1
6.6	-7	0	CC(C)NC(=O)N1CC2(C1)[C@H](c1ccccc1)[C@@H](CO)N2C(=O)C1CCOCC1
3.5	3	6	O=C(C[C@H]1C[C@H]2c3cc(NC(=O)c4cccnc4)ccc3O[C@H]2[C@@H](CO)O1)NCc1cccc(F)c1
3.0	2	5	CN1c2ccc(-c3cccc(F)c3)cc2[C@@H]2[C@@H](CCN2C(=O)Cc2cccnc2)[C@@H]1CO
-2.2	2	0	C[C@@H](NC(=O)C[C@H]1C[C@@H]2c3cc(NC(=O)Nc4ccccc4F)ccc3O[C@@H]2[C@H](CO)O1)c1ccccc1
2.5	-3	-1	CCC(=O)N(C)C[C@@H]1[C@@H](c2ccc(C3=CCCCC3)cc2)[C@H](CO)N1C(C)=O
7.0	3	10	CO[C@@H]1CN(C)C(=O)c2cc(NS(C)(=O)=O)ccc2OC[C@@H](C)N(C)C[C@H]1C
1.1	12	13	O=C(N[C@@H]1CC[C@@H](CC(=O)N2CCc3ccccc3C2)O[C@@H]1CO)C1CCOCC1
-2.2	9	7	O=C(Nc1ccccc1F)N1C[C@@H]2[C@H](c3ccccc31)[C@@H](CO)N2C(=O)c1ccc(F)cc1
-2.5	-1	-4	CC=Cc1ccc2n(c1=O)C[C@@H]1[C@@H](CO)[C@H](C(=O)NCC)[C@H]2N1C(=O)C1CC1 (mixture of isomers)
-0.7	-2	-3	COC(=O)C[C@@H]1CC[C@H]2[C@@H](COc3ccc(NC(=O)NCc4ccccc4)cc3C(=O)N2C)O1
-6.6	7	0	CN1[C@@H]2c3ccc(-c4ccccc4)c(=O)n3C[C@@H]2[C@@H](CO)[C@@H]1C(=O)NCCc1ccccc1
2.7	-3	0	COc1ccc(S(=O)(=O)N[C@@H]2C=C[C@@H](CC(=O)NCc3ccccc3F)O[C@H]2CO)cc1
·	·	?	COc1ccc(C#Cc2ccc([C@@H]3[C@H]4CN(C(=O)c5cccnc5)CC(=O)N4[C@H]3CO)cc2)cc1
7.2	6	13	Cc1ccc(S(=O)(=O)N2C[C@H](O)COC[C@H]3O[C@@H](CC(=O)NCCCN(C)C)CC[C@@H]32)cc1

Screens from PubChem BioAssay.
